Screening results as filed in PubChem BioAssay.
Mtb growth: M. tuberculosis H37Rv growth inhibitors, H37Rv strain (AID 1626). one-dose inhibition, % at 10 µM; IC50 in µM for titrated hits. 220,000 tested, 0.95% active. M. tuberculosis H37Rv growth inhibition; higher % means a stronger effect;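 active = confirmed in a dose series; inconclusive = inhibition above 80% but not taken into the dose series; inactive = below 80% or under 30% at every dose of the series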;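 note: bacteria incubated seven days before Alamar blue readout; 0% = bacteria only wells and 100% = bacteria with antibiotic wells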
Arbovirus inh: antivirals against arbovirus infection, primary screen, cell-based, full library, 10K replicate subset. inhibition, % at 10 µM. arbovirus infection cell-based antiviral screen. 200,000 tested, 0.37% active;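 active = inhibition from about 30%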;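 note: bluetongue infection of BSR cells; cell survival read as ATP light after 72 h; 0% = infected wells without compound and 100% = uninfected wells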
RecA intein inh: Mtb RecA intein splicing inhibitors, primary screen, biochemical, fluorescence, HTS; Protein RecA (Mycobacterium tuberculosis (strain ATCC 25618 / H37Rv)), P9WHJ3; cell-free RecA intein splicing; inhibition, %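 (about 9 µM by stock and volumes)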; 290,000 tested, 0.75% active; in the data active = inhibition above about 30%; inconclusive = no clear call, values can overlap the other calls;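 note: 0% = vehicle wells and 100% = reference inhibitor control wells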
Target sequence (P9WHJ3 whole entry, looked up): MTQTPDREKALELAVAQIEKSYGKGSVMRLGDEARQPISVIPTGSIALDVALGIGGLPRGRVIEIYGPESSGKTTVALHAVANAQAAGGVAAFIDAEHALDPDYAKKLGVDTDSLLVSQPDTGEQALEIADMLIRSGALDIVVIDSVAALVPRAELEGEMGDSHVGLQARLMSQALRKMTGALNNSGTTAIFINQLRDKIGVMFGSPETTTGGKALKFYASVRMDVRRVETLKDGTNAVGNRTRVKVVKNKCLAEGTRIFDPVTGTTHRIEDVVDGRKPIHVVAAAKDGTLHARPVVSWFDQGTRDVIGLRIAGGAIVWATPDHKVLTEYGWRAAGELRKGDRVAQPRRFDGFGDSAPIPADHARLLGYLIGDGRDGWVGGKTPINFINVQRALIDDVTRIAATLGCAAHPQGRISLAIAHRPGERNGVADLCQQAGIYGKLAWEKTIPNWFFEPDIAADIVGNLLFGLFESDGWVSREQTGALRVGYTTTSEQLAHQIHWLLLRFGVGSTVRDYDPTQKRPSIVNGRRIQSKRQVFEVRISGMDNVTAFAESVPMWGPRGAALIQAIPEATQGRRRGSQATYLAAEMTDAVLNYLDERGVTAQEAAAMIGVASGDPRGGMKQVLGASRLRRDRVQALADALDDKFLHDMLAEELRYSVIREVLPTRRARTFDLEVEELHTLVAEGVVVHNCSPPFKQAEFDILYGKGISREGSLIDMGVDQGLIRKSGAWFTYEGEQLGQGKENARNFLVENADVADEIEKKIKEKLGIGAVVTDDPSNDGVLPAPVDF
Mtb betalactam: beta-lactam sensitization of Mtb H37Rv, H37Rv; 330,000 tested, 0.27% active; M. tuberculosis H37Rv growth with meropenem, percent inhibition; hits of this screen are not shown here; inhibition, % at 25 µM;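 active = about 74% or more and at least 40 points above the plate without the antibiotic, then above 30% in a dose series; inconclusive = first-round hits that could not be retested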;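 note: growth measured after seven days incubation then overnight dye step; 0% = bacteria only wells and 100% = bacteria with antibiotic; twin plates without the antibiotic show which effects depend on it; some results filed as inactive read as strong as hits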
YopH inh: YopH tyrosine phosphatase inhibitors, primary screen, biochemical, fluorescence Ex485/Em525 | 140,000 tested, 0.16% active | inhibition, %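 (about 10 µM by stock and volumes)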 | AID 898, 2007;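 active = inhibition of 50% or more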;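 note: controls were vehicle for no effect and minimum signal wells for full effect; inactives centre near -20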
Arbovirus inh repeat: also measured in Arbovirus inh; calls as there; inhibition, %; measured here: 10K subset replicate screen; many hits read low in the repeat;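 first of two repeat runs on a subset; 0% = infected and 100% = uninfected wells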
Starred values were filed as active, the others as inactive.

For O=C(NCCCN1CCOCC1)C(=O)N/N=C/c1cccc2ccccc12 the results were Mtb growth -5%, RecA intein inh -1.6 and Mtb betalactam 4.
For COc1nc(Nc2cccc(F)c2)nc(OC)n1 the results were RecA intein inh -0.7 and Mtb betalactam -2.
Cc1cc(C)n(-c2ccc(C(=O)NCc3cccs3)cc2)n1 was read as Mtb growth 4%, Arbovirus inh -6, RecA intein inh -2.2, Mtb betalactam -8 and YopH inh -36.
CC1(C)CC(=O)C(N=Nc2cc(C(F)(F)F)ccc2Cl)=C(O)C1 was read as Mtb growth 2%, Arbovirus inh 19, RecA intein inh 5.7 and Mtb betalactam -5.
`CCCCOc1ccc(OCCSc2nc3ccccc3n2CC(=O)O)cc1` gave RecA intein inh 1.1 and Mtb betalactam 1.
For CC(/C=C/C1(O)C(C)CC(=O)CC1(C)C)OC1OC(CO)C(O)C(O)C1O (stereo unspecified) the results were Mtb growth -11%, Arbovirus inh 4, RecA intein inh -3.7 and Mtb betalactam -4.
For CN(C)CCCNc1ccc(-c2nn(C)c(=O)c3ccccc23)cc1[N+](=O)[O-] the results were Mtb growth 4%, Arbovirus inh -12, RecA intein inh 0.3 and Mtb betalactam -3.
`CCOc1ccccc1/C=N/NC(=O)c1ccc(Cn2cc([N+](=O)[O-])cn2)o1` gave Mtb growth 9%, Arbovirus inh 2, RecA intein inh -2.6, Mtb betalactam 2 and YopH inh 16.
Screening O=C1N[C@@H](Cc2cn(S(=O)(=O)c3ccccc3)c3ccccc23)C(=O)N[C@H]1Cc1ccccc1 returned Mtb growth -11%, RecA intein inh -0.1 and Mtb betalactam -12.
COc1cccc(NC(=O)[C@H](Cc2ccccc2)NC(=O)[C@@H]2Cc3ccccc3CN2)c1 was read as RecA intein inh 1.7 and Mtb betalactam -12.
Screening CCOC(=O)C1=C(O)c2ccccc2C(=O)/C1=C\c1ccc(C)cc1 returned Mtb growth -7%, Arbovirus inh -16, Mtb betalactam 6 and YopH inh 29.
CN1C(=O)C(O)(CC(=O)/C=C/c2ccco2)c2cc(Br)ccc21 (stereo unspecified) was read as Mtb growth 3%, Arbovirus inh -13, RecA intein inh -0.7 and Mtb betalactam 2.
For O=C(Nc1cc(C(F)(F)F)ccc1N1CCOCC1)c1ccccc1 the results were Mtb growth -3%, Arbovirus inh 0, RecA intein inh -5.8, Mtb betalactam 4 and YopH inh -1.
`COc1ccc(-n2c(N)c(C(=O)NCC3CCCO3)sc2=S)cc1` (stereo unspecified) gave Mtb growth 3%, Arbovirus inh 2, RecA intein inh 3.5, Mtb betalactam -4 and YopH inh -7.
Cc1ccc(CN2CCN(Cc3ccc4c(c3)OCCO4)CC2CCO)cc1 (stereo unspecified) was read as Mtb growth 10%, Arbovirus inh 1, RecA intein inh -5.7 and Mtb betalactam -4.
Cc1ccc(S(=O)(=O)N2CCOCC2)cc1NC(=O)COC(=O)Cc1ccsc1 was read as Mtb growth -7%, Arbovirus inh -1, RecA intein inh -0.9, Mtb betalactam -7 and YopH inh -9.
`COc1ccc(S(=O)(=O)N2CC(C)N(C(=O)N(C)C)C2C(C)C)cc1` (stereo unspecified) gave RecA intein inh 0.1 and Mtb betalactam -10.
`CCCNC(=S)N1CCN(c2nc(C)nc3sc4c(c23)CCCC4)CC1` gave Mtb growth -3%, Arbovirus inh -16, RecA intein inh 9.7 and Mtb betalactam 2.
Screening CC1(C)CC(=O)c2cc(C(=O)NC3CCSC3=O)c(=O)n(-c3ccccc3)c2C1 (stereo unspecified) returned Mtb growth -4%, Arbovirus inh 13, RecA intein inh 0.6, Mtb betalactam -12 and YopH inh -2.
Screening O=C(NC(=S)Nc1ccc(CN2CCOCC2)cc1)c1cc2ccccc2o1 returned Mtb growth inconclusive, Arbovirus inh -4, RecA intein inh 2.2 and Mtb betalactam 80.
O=C(NC(=S)N1CCc2ccccc21)c1ccccc1Cl was read as RecA intein inh 0.1 and Mtb betalactam 73.
For c1ccc2sc(Nc3nc4cc5c(cc4s3)OCO5)nc2c1 the results were Mtb growth 72%, Arbovirus inh 14, RecA intein inh -5.0, Mtb betalactam 87 and YopH inh -2.
For CC(C)(C)c1ccc(OCC(=O)Nc2ccc(-c3nc4cccnc4o3)cc2)cc1 the results were Mtb growth -4%, Arbovirus inh -1, RecA intein inh -0.7, Mtb betalactam -3 and YopH inh -11.
C/C(Cl)=C\Cn1c(NCCc2ccccc2)nc2c1c(=O)n(C)c(=O)n2C was read as Mtb growth 8%, Arbovirus inh 11, RecA intein inh 3.4, Mtb betalactam -5 and YopH inh -5.
For O=C(/C=C/c1ccccc1)C1C(=O)c2ccccc2C1=O the results were Mtb growth 24µM*, Arbovirus inh 2, RecA intein inh 6.7, Mtb betalactam 95 and YopH inh -37.
For N#CC1(NC(=O)COC(=O)/C=C/c2ccc3ccccc3n2)CCCCC1 the results were RecA intein inh 2.4 and Mtb betalactam 86.
Screening COc1ccc(Cl)cc1NC(=S)NC(=O)c1ccc2c(c1)OCO2 returned RecA intein inh -2.7 and Mtb betalactam 11.
Screening COc1ccc(-c2cc3c(=O)n(CC(=O)NCc4cccnc4)nc(C)n3n2)cc1 returned RecA intein inh -1.2 and Mtb betalactam -3.
`COc1ccc(C2C(C(=O)O)c3ccccc3C(=O)N2C)cc1Br` (stereo unspecified) gave Mtb growth -4%, Arbovirus inh 3, RecA intein inh 0.6, Mtb betalactam -9 and YopH inh -12.
Screening C=CCn1cccc(C(=O)Nc2ccc(C)c(Cl)c2)c1=O returned RecA intein inh 1.9 and Mtb betalactam 6.

Entries shown so far containing four or more nitrogen atoms (seven):
For O=C(NCCCN1CCOCC1)C(=O)N/N=C/c1cccc2ccccc12 the results were Mtb growth -5%, RecA intein inh -1.6 and Mtb betalactam 4.
For COc1nc(Nc2cccc(F)c2)nc(OC)n1 the results were RecA intein inh -0.7 and Mtb betalactam -2.
For CN(C)CCCNc1ccc(-c2nn(C)c(=O)c3ccccc23)cc1[N+](=O)[O-] the results were Mtb growth 4%, Arbovirus inh -12, RecA intein inh 0.3 and Mtb betalactam -3.
`CCOc1ccccc1/C=N/NC(=O)c1ccc(Cn2cc([N+](=O)[O-])cn2)o1` gave Mtb growth 9%, Arbovirus inh 2, RecA intein inh -2.6, Mtb betalactam 2 and YopH inh 16.
`CCCNC(=S)N1CCN(c2nc(C)nc3sc4c(c23)CCCC4)CC1` gave Mtb growth -3%, Arbovirus inh -16, RecA intein inh 9.7 and Mtb betalactam 2.
C/C(Cl)=C\Cn1c(NCCc2ccccc2)nc2c1c(=O)n(C)c(=O)n2C was read as Mtb growth 8%, Arbovirus inh 11, RecA intein inh 3.4, Mtb betalactam -5 and YopH inh -5.
Screening COc1ccc(-c2cc3c(=O)n(CC(=O)NCc4cccnc4)nc(C)n3n2)cc1 returned RecA intein inh -1.2 and Mtb betalactam -3.

New compounds follow
For COc1ccc(CNC(=O)CSCc2ccccc2Cl)cc1 the results were Mtb growth 10%, Arbovirus inh -4, RecA intein inh 5.2, Mtb betalactam 7 and YopH inh -10.
Screening O=C1CC(c2ccc(O)c(O)c2)Oc2cc(O)cc(O)c21 (stereo unspecified) returned Mtb growth -5% and Mtb betalactam -6.
For CC(=O)c1sc(Nc2ccccn2)nc1C the results were Mtb growth 0%, Arbovirus inh 10, RecA intein inh 0.8, Mtb betalactam -6 and YopH inh -51.
CC(=NCCC1=CCCCC1)c1c(O)[nH]c(=O)[nH]c1=O was read as Mtb growth 0%, Arbovirus inh -36, RecA intein inh -0.4, Mtb betalactam 10 and YopH inh -5.
For Cc1cc(C)n(-c2ncc(-c3ccccc3)nn2)n1 the results were Mtb growth 4%, Arbovirus inh 0, RecA intein inh 0.4, Mtb betalactam 2, YopH inh -41 and Arbovirus inh repeat 2.
For O=S(=O)(c1ccc2nc(Cc3ccccc3)[nH]c2c1)N1CCOCC1 the results were Mtb growth -5%, Arbovirus inh 6, RecA intein inh 5.6, Mtb betalactam 0 and YopH inh -12.
For COc1ccc(CN2CCN(Cc3ccccc3F)CC2)cc1 the results were RecA intein inh -2.4 and Mtb betalactam 1.
`COc1ccc(-c2cc(-c3ccccc3)nc(SC(C)C(=O)O)c2C#N)cc1` (stereo unspecified) gave RecA intein inh 10 and Mtb betalactam 0.
CCC(C)N1C(=O)NC(=O)C2(Cc3cc(C)ccc3N(C)C2)C1=O (stereo unspecified) was read as Mtb growth -18%, Arbovirus inh 3, RecA intein inh 2.8, Mtb betalactam -6 and YopH inh -26.
For Cc1cc(Cl)ccc1NNC(=O)c1snnc1C the results were Mtb growth -5%, RecA intein inh 0.9 and Mtb betalactam 96.
`Cc1occc(=O)c1OCc1ccc(Cl)cc1Cl` gave RecA intein inh -1.4 and Mtb betalactam 0.
For CCCCN(C1CCS(=O)(=O)C1)S(=O)(=O)c1cccs1 (stereo unspecified) the results were RecA intein inh -0.9 and Mtb betalactam -2.
For Cc1ccc(OCCNC(=O)c2cccc(C)c2)cc1 the results were RecA intein inh -2.9 and Mtb betalactam -2.
For CC(=O)Nc1cccc(CP(=O)(c2ccccc2)c2ccccc2)c1 the results were Mtb growth -10%, RecA intein inh -1.3 and Mtb betalactam -7.
NS(=O)(=O)c1cccc(NC(=O)Nc2ccc(Cl)cc2)c1 was read as Mtb growth -12% and Mtb betalactam -2.
COCCN(C(=O)CN1CCCc2ccccc21)c1c(N)n(Cc2ccccc2)c(=O)[nH]c1=O was read as Mtb growth -5%, Arbovirus inh -5, RecA intein inh -0.7, Mtb betalactam -15 and YopH inh -48.
Screening CNC(=S)NNC(=O)c1cccc(N(C)C)c1 returned Mtb growth 2%, Arbovirus inh -1 and Mtb betalactam 0.
`c1ccc(NNC2=NCCCCC2)cc1` gave RecA intein inh -1.8 and Mtb betalactam 91.
`Cc1ccc(S(=O)(=O)c2nc(-c3ccccc3)oc2NCCN2CCOCC2)cc1` gave Mtb growth -4%, Arbovirus inh 6, RecA intein inh -0.6, Mtb betalactam 7 and YopH inh -27.
`CCNS(=O)(=O)c1cc(OC)ccc1OC` gave Mtb growth -4%, Arbovirus inh 1, RecA intein inh -1.1, Mtb betalactam 5 and YopH inh 1.
O=C(c1ccc(S(=O)(=O)c2ccccc2)cc1)N1CCCCCC1 was read as Mtb growth -4%, Arbovirus inh 15, RecA intein inh -0.3, Mtb betalactam -1 and YopH inh 3.
Screening COc1cccc(CC2(CO)CCCN(Cc3cnn(-c4ccccc4)c3)C2)c1 (stereo unspecified) returned Mtb growth -3%, Arbovirus inh -22, RecA intein inh -0.9 and Mtb betalactam 0.
Screening O=C(Nc1cccnc1)c1ccc(Cl)c(S(=O)(=O)N2CCOCC2)c1 returned RecA intein inh -0.1 and Mtb betalactam 1.
For COc1cc(C=Nc2c(C)cc(C)cc2C)ccc1OC(C)=O the results were Mtb growth 2%, Arbovirus inh 10, RecA intein inh 0.2, Mtb betalactam 3 and YopH inh 5.
Screening O=C(O)/C=C/c1cccc(NC(=O)Nc2ccc([N+](=O)[O-])cc2)c1 returned RecA intein inh 4.1 and Mtb betalactam -6.
For COc1ccccc1N=CC1=C(O)CC(c2ccccc2)CC1=O (stereo unspecified) the results were Mtb growth -1%, Arbovirus inh 2, RecA intein inh -8.4, Mtb betalactam -5 and YopH inh -13.
`CN(Cc1cccc(F)c1)C(=O)C(c1ccccc1)c1ccccc1` gave RecA intein inh 9.2 and Mtb betalactam 0.
COCCNCCCCOc1ccccc1-c1ccccc1 was read as Mtb growth 3%, Arbovirus inh -20, RecA intein inh -1.0, Mtb betalactam 0 and YopH inh -17.
`COc1cc2ccccc2cc1C(=O)N1CCCCC1` gave RecA intein inh 1.5 and Mtb betalactam -4.
`CC1=CC(C)(C)N(C(=O)CSc2nnc(N)s2)c2cc(C)c(C)cc21` gave Mtb growth 9%, Arbovirus inh -14, RecA intein inh 6.6, Mtb betalactam -14 and YopH inh -15.
For CCOC(=O)Nc1sc(C)c(C)c1C(N)=O the results were Mtb growth 6%, Arbovirus inh -8, RecA intein inh -1.1, Mtb betalactam 1 and YopH inh -34.
Screening CC(C)NC(=O)C1CCCN(S(=O)(=O)c2cccc3nonc23)C1 (stereo unspecified) returned RecA intein inh 0.2 and Mtb betalactam 2.
For COc1cc2c(cc1OC)-c1cc(NCc3ccccn3)nc(=O)n1CC2 the results were Mtb growth 7%, Arbovirus inh 2, RecA intein inh 23, Mtb betalactam -3 and YopH inh -37.
CC(C)OC(=O)CSc1nnc(SCc2cccc3ccccc23)s1 was read as Mtb growth inconclusive, Arbovirus inh 6, RecA intein inh 6.5, Mtb betalactam 100 and YopH inh -22.

Some of the compounds tested; the hit share may differ from the screen's.
